fixLJ activator: B. multivorans fixK reporter activation. B. multivorans fixK-promoter GFP reporter, 18 h; active compounds read high. z-score (no concentration beside the values). 29,000 tested, 0.3% active. AID 1918990;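 active means replicate mean overnight rise in green fluorescent reporter signal, 3 or more SD over negative controls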;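 further: score is relative to vehicle wells of the plate; 300 nL library stock went into each well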
Starred values were filed as active, the others as inactive; & = joins results of further samples.

For COc1cccc(CN(C(=O)c2oc3cc(C)ccc3c2C)C2CCS(=O)(=O)C2)c1 (stereo not drawn) the results were fixLJ activator -2.6.
CCc1ccccc1NC(=O)Cn1c(=O)n(Cc2ccco2)c(=O)c2sc3ccccc3c21 was read as fixLJ activator -0.82.
CCC(=O)N1CCc2cc(Br)cc(S(=O)(=O)CCC(=O)N3CCN(c4ccc(OC)cc4)CC3)c21 was read as fixLJ activator -1.7.
Cc1ccc(-c2nc3cc(Cl)ccc3o2)cc1NC(=O)c1cc([N+](=O)[O-])ccc1N1CCOCC1 was read as fixLJ activator 0.03.
`Cc1ccc2nc(C(=O)N3CCC(O)CC(C)(C)C3)c(F)n2c1` (stereo not drawn) gave fixLJ activator -0.96.
Screening CCC1CCCCN1CCCNC(=O)c1cc2c(Cl)nc3ccccc3c2s1 (stereo not drawn) returned fixLJ activator -2.2.
For Cc1ccc(C)c(NC(=O)CCS(=O)(=O)c2cccc3nsnc23)c1 the results were fixLJ activator 0.66.
Screening CCn1cc(C(=O)OCC(=O)Nc2cc(Cl)ccc2C)c(=O)c2ccc(C)nc21 returned fixLJ activator -0.19.
For Cc1ccc(Oc2c(C(F)(F)F)oc3cc(OCC(=O)NC4CCCCC4)ccc3c2=O)cc1 the results were fixLJ activator -4.4.
Screening CCOc1cc2sc(N3CCC(C(=O)Nc4ccc(C)cc4)CC3)nc2cc1Br returned fixLJ activator -1.4.
For Cc1ccc(Cn2nnc3c(=O)[nH]c(C4CCN(C(=O)Cc5ccccc5F)CC4)nc32)cc1 the results were fixLJ activator -1.6.
Screening CC(=O)Nc1ccc(NS(=O)(=O)c2cc(Br)cc3c2N(C(=O)C2CC2)CC3)cc1 returned fixLJ activator 0.26.
`C[C@H](NC(=O)OC(C)(C)C)c1nnc(SCc2ccc(Cl)cc2Cl)o1` gave fixLJ activator -0.35.
For Cc1nc2ccc(S(=O)(=O)NC(CC(C)C)C(=O)NCc3ccc(Cl)cc3)cc2s1 (stereo not drawn) the results were fixLJ activator -1.5.
`Cc1c(-c2cc(C(=O)NCc3nnnn3-c3ccccc3)[nH]n2)cnn1C` gave fixLJ activator 0.23.
Screening CN(CCn1cc(C(=O)N2CCCCC2)nn1)c1ccc2ccccc2n1 returned fixLJ activator -0.73.
`Cc1ncsc1CCN(C)C(=O)c1cnc(-c2cccs2)nc1` gave fixLJ activator 0.02.
`CCOCCCn1c(=N)c(C(=O)NCc2cccnc2)cc2c(=O)n3ccccc3nc21` gave fixLJ activator -0.54.
`CCc1ccc(S(=O)(=O)c2cn(CC(=O)Nc3ccc(F)c(Cl)c3)c3ccccc3c2=O)cc1` gave fixLJ activator -0.65.
COc1ccccc1CNc1cc(-c2ccccc2)nc2nncn12 was read as fixLJ activator -3.6.
Screening Cc1ccc(Sc2c(C)nn(C(C)(C)C)c2OC(=O)C(C)(C)C)cc1 returned fixLJ activator -0.58.
`COc1cccc(CNC(=O)CN(C)S(=O)(=O)c2ccc3c(c2)c(=O)n(C)c(=O)n3C)c1` gave fixLJ activator -1.5.
`COc1cccc(NC(=O)c2sc3nc(C)c(C(=O)Nc4ccc(C)cc4C)c(-c4sccc4C)c3c2N)c1` gave fixLJ activator -1.5.
`O=C(NCc1ccc(F)cc1)c1ccc(Cn2c(SCc3ccc(F)cc3)nc3cccnc32)cc1` gave fixLJ activator -1.3.
`O=C(Cc1cn2ccsc2n1)NC1COCC1Cc1ccncc1` (stereo not drawn) gave fixLJ activator 0.39.
CCc1ccc(N(CC)C(=O)Cn2nc(Cc3cccnc3)c3ccccc3c2=O)cc1 was read as fixLJ activator -0.09.
Screening COc1ccc(-c2noc(CN(C)CC3CCC(=O)N(C(C)C)C3)n2)cc1 (stereo not drawn) returned fixLJ activator -1.2.
`Cn1c(=O)c2cc(C(=O)N3CCN(c4ccc(Cl)cc4)CC3)sc2c2ccccc21` gave fixLJ activator -1.1.
`CSCCC(NS(=O)(=O)c1ccc2c(c1)oc(=O)n2C)C(=O)Nc1ccc(Cl)cc1` (stereo not drawn) gave fixLJ activator -0.93.
For Cc1nn(-c2ccccc2)c(C)c1CC(=O)N(Cc1ccccn1)CC1CCCO1 (stereo not drawn) the results were fixLJ activator -1.2.
O=C(NCC1(c2ccccc2)CCCC1)C(=O)Nc1cccc(Br)c1 was read as fixLJ activator -2.4.
For COc1ccc(-n2nc(C(=O)Nc3ccc(C)cn3)c3c4ccccc4n(C)c3c2=O)cc1 the results were fixLJ activator -0.31.
Cc1c(CNC(C)c2ccccc2)c(C(=O)O)c(C)n1Cc1c(F)cccc1Cl (stereo not drawn) was read as fixLJ activator -2.1.
For Cc1ccc(-n2c(=O)c3ccc(C(=O)NCc4ccco4)cc3n(CC(=O)Nc3ccc(C)c(F)c3)c2=O)cc1 the results were fixLJ activator -1.4.
CC1CCCN(Cc2nc3c(c(=O)n(C)c(=O)n3C)n2Cc2ccc(Cl)cc2)C1 (stereo not drawn) was read as fixLJ activator -1.
Cn1c(SCC(=O)NCCc2ccc(F)cc2)nnc1C1CCCNC1 (stereo not drawn) was read as fixLJ activator -2.4.
`CCCc1cc(N2CCC(NCC3(O)CCCCC3)CC2)nc(C)n1` gave fixLJ activator 0.36.
`CCOc1ccc(NC(=O)c2cnc3ccccn3c2=O)cc1` gave fixLJ activator -0.09.
COC1CCN(c2ccc(C(=O)NCCCn3ccnc3C(C)C)cn2)CC1 was read as fixLJ activator -1.6.
For COc1ccc(NC(=O)c2ccc(COc3ccccc3OC)o2)cc1OC the results were fixLJ activator -1.4.

Six entries drawn at random from those above:
Cn1c(SCC(=O)NCCc2ccc(F)cc2)nnc1C1CCCNC1 (stereo not drawn) was read as fixLJ activator -2.4.
`CCCc1cc(N2CCC(NCC3(O)CCCCC3)CC2)nc(C)n1` gave fixLJ activator 0.36.
Cc1c(CNC(C)c2ccccc2)c(C(=O)O)c(C)n1Cc1c(F)cccc1Cl (stereo not drawn) was read as fixLJ activator -2.1.
For COc1ccc(NC(=O)c2ccc(COc3ccccc3OC)o2)cc1OC the results were fixLJ activator -1.4.
For Cc1ccc(-n2c(=O)c3ccc(C(=O)NCc4ccco4)cc3n(CC(=O)Nc3ccc(C)c(F)c3)c2=O)cc1 the results were fixLJ activator -1.4.
COC1CCN(c2ccc(C(=O)NCCCn3ccnc3C(C)C)cn2)CC1 was read as fixLJ activator -1.6.

Further results follow:
Screening COc1ccc(CN2CC[C@]3(OC)CCC(OCC(=O)O)CC23)cc1O (stereo partly drawn) returned fixLJ activator 0.86.
CCOc1ccc2c(c1)c(=O)c(S(=O)(=O)c1ccc(C)cc1)cn2CC(=O)Nc1ccc(C)cc1 was read as fixLJ activator 0.37.
Screening COC(=O)c1ccc(NC(=O)Cn2c(-c3nonc3N)nc3ccccc32)cc1 returned fixLJ activator 0.77.
Screening Cc1ccc(C)c(NC(=O)Cn2c(=O)n(Cc3ccco3)c(=O)c3ccc(C(=O)NC4CCCC4)cc32)c1 returned fixLJ activator -1.2.
COc1ccc(Nc2nc3ccc(C)cc3nc2-n2nc(C)cc2C)cc1Cl was read as fixLJ activator -0.25.
`Cc1ccc(S(=O)(=O)c2cn(CC(=O)Nc3cccc(Cl)c3)c3ccccc3c2=O)cc1` gave fixLJ activator -1.7.
For CCOC1CCN(c2cc(C3CC(N)C3)nc(COC)n2)CC1 (stereo not drawn) the results were fixLJ activator -1.6.
COc1ccc(NC(=O)CSc2oc(-c3cccs3)nc2S(=O)(=O)c2ccc(Br)cc2)c(OC)c1 was read as fixLJ activator -1.7.
Screening CN(Cc1nc(-c2ccc(Cl)cc2)no1)S(=O)(=O)c1ccccc1 returned fixLJ activator 1.4.
Screening Cc1cc(C)c2c(=O)cc(C(=O)Nc3ccc(S(=O)(=O)Nc4onc(C)c4C)cc3)oc2c1 returned fixLJ activator -0.77.
`CC(C)COc1ccccc1C1CC(=O)Nc2cc3c(cc21)OCO3` (stereo not drawn) gave fixLJ activator 0.47.
Screening CCOC(=O)C1CCN(c2nc3c(S(=O)(=O)c4ccccc4)nnn3c3ccc(Cl)cc23)CC1 returned fixLJ activator 2.2.
CN(C)C(=O)Oc1ccc[n+](C)c1 was read as fixLJ activator 0.12.
For O=C(c1c[nH]c2ccc(S(=O)(=O)Nc3ccccc3F)cc2c1=O)N1CCCCCC1 the results were fixLJ activator -1.1.
`Cc1ccc(-c2nnc(SCC(=O)N3CCc4ccccc43)o2)cc1` gave fixLJ activator -0.31.
Screening COc1ccc(S(=O)(=O)Nc2cc3c(cc2NCc2ccccc2)n(C)c(=O)n3C)cc1OC returned fixLJ activator 0.72.
Cc1ccccc1NC(=O)C1CCN(C(=O)c2cnn(-c3ccccc3)c2-n2cccc2)CC1 was read as fixLJ activator -2.9.
CCOC(=O)C1CCCN(C(=O)c2ccc3c(c2)N(Cc2ccccc2)C(=O)c2ccccc2S3(=O)=O)C1 (stereo not drawn) was read as fixLJ activator 0.23.
Cc1ccc2c(=O)cc(C(=O)Nc3ccc(S(=O)(=O)N4CCCCC4C)cc3)oc2c1C (stereo not drawn) was read as fixLJ activator 0.28.
Cc1ccc2oc(=O)c3cc(C(=O)NCc4ccc(Cl)cc4)sc3c2c1 was read as fixLJ activator -0.01.
For O=C(c1ccccn1)C1CCCN(C(=O)NCCc2noc(C3CC3)n2)C1 (stereo not drawn) the results were fixLJ activator 0.07.
For Cc1ccccc1C(=O)Nc1c(C(=O)Nc2cccc(F)c2)oc2ccccc12 the results were fixLJ activator 0.26.
Screening Cc1ncsc1C(=O)N1CCCC2(CCc3cnc(N(C)C)nc32)C1 (stereo not drawn) returned fixLJ activator 0.06.
`CN(C)c1nc(NCCc2n[nH]c(=O)n2C)cc(C(F)(F)F)n1` gave fixLJ activator -1.1.
`COc1ccc(C[C@H](N)C(=O)N[C@H]2[C@@H](O)[C@H](n3cnc4c(N(C)C)ncnc43)O[C@@H]2CO)cc1` gave fixLJ activator -1.2.
`O=C1c2ccccc2-c2onc3c(N4CCN(C5CCCCC5)CC4)cc(NCCO)c1c23` gave fixLJ activator -2.7.
Screening COC(=O)c1c(NC(=O)CCCOc2ccc(C)cc2)sc2c1C(C(=O)OC)CC2 (stereo not drawn) returned fixLJ activator -1.1.
Cc1ccc(OC(C)C(=O)N(CCN(C)C)Cc2nc[nH]c2C)cc1C (stereo not drawn) was read as fixLJ activator -0.71.
Screening COC1COCC1NC(=O)Cc1coc2cc(C)cc(C)c12 (stereo not drawn) returned fixLJ activator 0.67.
For COCCOC(=O)c1c(C)n(S(=O)(=O)c2ccc(C)cc2)c2ccc(NS(=O)(=O)c3ccc(C)cc3)cc12 the results were fixLJ activator -0.26.
For CC(C)NCC(O)c1ccc(O)c(O)c1 (stereo not drawn) the results were fixLJ activator 0.44&2.7.
For CCOc1ccc2nc(N3CCCC(C(=O)Nc4cccc(Cl)c4C)C3)sc2c1 (stereo not drawn) the results were fixLJ activator -1.1.
For COc1ccc(Cl)cc1NC(=O)C1CCN(S(=O)(=O)c2ccc(F)cc2)CC1 the results were fixLJ activator -3.1.
CCOC(=O)c1cnc2c(OC)cccc2c1Nc1cccc(O)c1 was read as fixLJ activator -2.3.
COc1ccc(C(=O)Nc2nnc(C(C)C)s2)cc1OC was read as fixLJ activator -0.72.
Cc1ccccc1-c1noc(CNCCCc2c(C)noc2C)n1 was read as fixLJ activator 0.44.
`O=C(NCc1ccccc1)C(=O)Nc1ccc2nc3n(c(=O)c2c1)CCCCC3` gave fixLJ activator -2.6.
`Cc1cnc2c(C(=O)NCCC3CCCCN3S(C)(=O)=O)cnn2c1` (stereo not drawn) gave fixLJ activator 0.53.
Screening Cc1ccc2c(=O)cc(C(=O)Nc3ccc(S(=O)(=O)N4CCC(C)CC4)cc3)oc2c1C returned fixLJ activator -1.6.
COc1ccc(CCNC(=O)CCc2c(C)nc3c(c(C)nn3-c3ccc(C)cc3)c2C)c(OC)c1 was read as fixLJ activator 0.05.

Quoted from above, 4 compounds:
For COc1cccc(CN(C(=O)c2oc3cc(C)ccc3c2C)C2CCS(=O)(=O)C2)c1 (stereo not drawn) the results were fixLJ activator -2.6.
CCc1ccccc1NC(=O)Cn1c(=O)n(Cc2ccco2)c(=O)c2sc3ccccc3c21 was read as fixLJ activator -0.82.
CCC(=O)N1CCc2cc(Br)cc(S(=O)(=O)CCC(=O)N3CCN(c4ccc(OC)cc4)CC3)c21 was read as fixLJ activator -1.7.
Cc1ccc(-c2nc3cc(Cl)ccc3o2)cc1NC(=O)c1cc([N+](=O)[O-])ccc1N1CCOCC1 was read as fixLJ activator 0.03.

(continued)
Cc1c(C(=O)NCc2ccc(Cl)cc2)oc2ccc3c(c12)C(=O)CC(C)(C)O3 was read as fixLJ activator -0.34.
For O=C(Cn1c(=O)n(Cc2ccc3c(c2)OCO3)c(=O)c2ccccc21)Nc1cccc(Cl)c1 the results were fixLJ activator -1.8.
CCCCc1cc(=O)oc2cc(C)c3c(C(C)(C)C)coc3c12 was read as fixLJ activator -1.2.
`Cc1[nH]ncc1C(=O)Nc1ccccc1OCCCc1ccccc1` gave fixLJ activator -0.12.
For Cc1ccc2sc(-c3ccc(N)cc3)nc2c1 the results were fixLJ activator 0.46.
NC(=O)c1ccc(CN2CCC3(CCC(=O)N(CCO)C3)CC2)cc1 was read as fixLJ activator 1.9.
Screening Cc1cccc(CC(=O)Nc2c(C(=O)Nc3cccc(F)c3)oc3ccccc23)c1 returned fixLJ activator 0.56.
Screening COC(=O)COc1ccc2oc(-c3ccc(OC)cc3)cc(=O)c2c1 returned fixLJ activator -1.7.
Screening CCc1nc2ccccc2n1CCCCOc1ccccc1C returned fixLJ activator -1.2.
Screening CCOc1nc(-c2ccc(C)cc2)ccc1-c1noc(-c2ccccc2F)n1 returned fixLJ activator -0.93.
For Cc1ccc(C)c(S(=O)(=O)c2cnc(SCC(=O)Nc3ccc(F)cc3F)[nH]c2=O)c1 the results were fixLJ activator 0.37.
CCNC(=O)c1c(NC(=O)Cc2coc3cc(C)ccc23)sc2c1CCCC2 was read as fixLJ activator 1.3.

Screening data from PubChem BioAssay.

Some of the compounds tested; count on the stated rates, not on these rows.
